Bfl-1 A1 inh = caspase 3/7 activation in MEF A1-2A-BIM cells, primary screen, A1 inhibitor project, cell-based, luminescence, HTS; AID 2462, 2010; Caspase-Glo 3/7 luminescence, 3 h; percent of clofoctol response, vehicle zero; caspase activation, % (test concentration not listed); 330,000 tested, 0.066% active;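 active = over half of replicate activation scores above 10%, or exactly half above 10 with the replicate mean above 10; inconclusive = replicate mean below 10 yet half the replicates above 10; inactive = over half of replicates below 10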;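 note: wells of about 30 µL received 50 nL stock; many hits fall short of the cut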
AF4-AF9 inh = inhibitors of AF4 peptide binding to AF9, primary screen, biochemical, AlphaScreen, biotin-AF4 peptide, FLAG-AF9, single point | Protein AF-9 (Homo sapiens), P42568 | inhibition, % at 10 µM | 350,000 tested, 0.47% active | AID 651704, 2012;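 active = every replicate reaching a set inhibition limit, whatever the replicate mean, cut at about 25% in these data; inconclusive = mean inhibition reaches that limit but some replicates miss it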;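 note: 0% = plate neutral control median and 100% = total signal loss; the record names both 10 and 1 µM as test concentration; the first replicate is given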
Target sequence (P42568 whole entry, looked up): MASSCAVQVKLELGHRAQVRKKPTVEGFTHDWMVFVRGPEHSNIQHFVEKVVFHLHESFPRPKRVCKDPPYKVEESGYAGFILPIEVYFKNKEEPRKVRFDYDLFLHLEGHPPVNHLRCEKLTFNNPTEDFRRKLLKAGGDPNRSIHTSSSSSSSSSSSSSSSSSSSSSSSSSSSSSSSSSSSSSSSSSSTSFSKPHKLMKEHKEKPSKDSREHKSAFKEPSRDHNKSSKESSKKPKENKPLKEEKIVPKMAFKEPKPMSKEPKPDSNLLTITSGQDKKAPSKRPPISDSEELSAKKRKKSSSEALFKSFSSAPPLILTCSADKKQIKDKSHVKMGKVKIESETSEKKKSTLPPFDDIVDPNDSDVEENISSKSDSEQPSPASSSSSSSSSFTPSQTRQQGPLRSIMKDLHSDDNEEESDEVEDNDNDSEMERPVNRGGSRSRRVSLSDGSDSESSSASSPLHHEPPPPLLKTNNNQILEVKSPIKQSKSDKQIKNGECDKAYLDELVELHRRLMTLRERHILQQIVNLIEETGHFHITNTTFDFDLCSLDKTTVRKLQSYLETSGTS
UCH37 inh = inhibitors of human UCH37 deubiquitinase, primary screen, biochemical, Ub-AMC cleavage, fluorescence; Ubiquitin carboxyl-terminal hydrolase isozyme L5 (Homo sapiens), Q9Y5K5; purified proteasome/UCH37; inhibition, % (test concentration not listed); 330,000 tested, 0.33% active;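 active = mean of two replicates above 20%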;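 note: 0% = compound-free wells with enzyme and 100% = wells lacking proteasome; stock transfer was 100 nL into about 20 µL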
Target sequence (Q9Y5K5 whole entry, looked up): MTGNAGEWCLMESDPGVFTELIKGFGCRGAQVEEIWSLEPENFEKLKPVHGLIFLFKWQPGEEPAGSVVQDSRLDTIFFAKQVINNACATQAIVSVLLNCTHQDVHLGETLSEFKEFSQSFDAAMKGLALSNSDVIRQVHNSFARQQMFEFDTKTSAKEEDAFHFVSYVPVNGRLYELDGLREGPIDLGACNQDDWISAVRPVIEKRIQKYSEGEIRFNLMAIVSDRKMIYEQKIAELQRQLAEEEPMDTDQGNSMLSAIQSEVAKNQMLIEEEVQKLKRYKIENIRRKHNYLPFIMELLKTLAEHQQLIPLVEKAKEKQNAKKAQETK
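Reagent: Ub-AMC substrate; assay system: Proteasome-associated human UCH37 deubiquitinase; controls: no-proteasome and no-compound wells; read-out: % inhibition of Ub-AMC cleavage fluorescence; timing: 30 min preincubation with enzyme, 25 min cleavage at room temperature; signal: AMC fluorescence from Ub-AMC cleavage, excitation 355 nm, emission 460 nm; buffer or medium: Tris-HCl pH 7.4 plus ovalbumin, ATP-MgCl2, DTT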
T cruzi inh = inhibitors of intracellular T. cruzi growth, primary screen, luminescence, NIH3T3 host cells. T. cruzi beta-gal in NIH3T3, 90 h. inhibition, % (no concentration beside the values). 300,000 tested, 1.4% active. AID 1885, 2009;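 active = mean inhibition across valid replicates above about 55%, limit read from the data; inconclusive = mean below that limit but half or more replicates reach it; inactive = mean below it, under half of replicates reach it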;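 note: signal also drops with host cell toxicity which is not excluded here; 0% = plate median of DMSO wells and 100% = zero luminescence signal; higher percent means less beta-gal luminescence so fewer parasites; stock transfer was 50 nL into about 50 µL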
Beta cell apopt = inhibitors of cytokine-induced beta cell apoptosis, primary screen, luminescence; INS-1E cytokine-induced death, ATP luminescence, 48 h; percent of positive-control rescue, neutral wells zero; protection from apoptosis, % (test concentration not listed); 300,000 tested, 0.8% active; AID 435005, 2010;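 active = all replicates at 75% or more, or half of them and the mean; inconclusive = half reach 75% but not the mean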;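 note: 0% = cytokine-treated negative control wells and 100% = positive control rescue; higher means more ATP so stronger rescue from cytokine killing; wells of about 40 µL received 100 nL stock; the first replicate is given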
Ecoli rRNA inh = reduced GFP signal of wild-type E. coli, primary screen, bacterial rRNA inhibitor project, GFP/RFP fluorescence, OD600, single point. E. coli WT GFP vs humanized-ribosome RFP mutants, 24 h; hits give low values; DMSO median 0, no signal -100. GFP signal change (wild-type ribosome), % (concentration not given with the values). 350,000 tested, 1.6% active;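 active = significant combined selectivity score with lowered wild-type GFP, culture density cut under 30%, mutant RFP and density less affected; inactive = any of these conditions unmet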; note: one replicate is shown; some compounds called inactive have numbers as strong as hits
E coli growth = E. coli growth inhibition, primary screen, OD600; Escherichia coli growth, 23 h; hits give low values; OD600 absorbance (no concentration beside the values); 330,000 tested, 0.21% active; AID 1053175, 2014;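 active = OD600 absorbance below the run mean of sample wells minus 3.6 SD, in any replicate, cut at about 0.56 in these data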;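 note: stock transfer was 300 nL into about 60 µL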
FGF22 binding = binders of human FGF22 protein, primary screen, FGF22 synaptogenesis inhibitor project, biophysical, thermal shift, single point | Fibroblast growth factor 22 (Homo sapiens), Q9HCT0 | 340,000 tested, 1.5% active | recombinant FGF22 thermal shift, SYPRO orange fluorescence; percent of sucrose octasulfate shift, DMSO zero | AID 651658, 2012 | calls only at 9.99 µM;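 active = melting point raised past a set limit in the mean and every replicate; inconclusive = no clear call; three in four hits are not shown here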
Target sequence (Q9HCT0 whole entry, looked up): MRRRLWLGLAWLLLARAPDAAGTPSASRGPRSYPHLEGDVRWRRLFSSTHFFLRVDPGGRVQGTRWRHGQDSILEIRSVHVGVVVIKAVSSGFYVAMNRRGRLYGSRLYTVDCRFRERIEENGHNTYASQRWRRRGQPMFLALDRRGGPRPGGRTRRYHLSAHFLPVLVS
Ecoli rRNA inh OD600 = recorded beside Ecoli rRNA inh, whose call it bears; OD600 change, %; measured here: OD600 growth;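 optical density of the mix in the first replicate; 0 = DMSO median and -100 = no signal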
Ecoli rRNA inh RFP = second read-out of Ecoli rRNA inh, no call of its own (marks repeat the call); RFP signal change, %; measured here: RFP humanized mutant strains;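 first replicate; 0 = DMSO median and -100 = no signal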
* hit, by the source's call; i = inactive; ? = inconclusive; · = not tested or not shown. These rows are one share of the data (hit frequency here may not be typical).

Molecule	Bfl-1 A1 inh	AF4-AF9 inh	UCH37 inh	T cruzi inh	Beta cell apopt	Ecoli rRNA inh	Ecoli rRNA inh OD600	Ecoli rRNA inh RFP	E coli growth	FGF22 binding
CCCN1CCC[C@@H]2Cc3nc(N)ncc3C[C@H]21	-0.5	-3.5	-2.2	-4	-2	16	15	1.5	·	i
O=C(Nc1ccccc1)c1c(O)[nH]c(=S)[nH]c1=O	-7.9	-1.6	6.8	-4	5	-6	-5	20	0.77	i
O=C(/C=C/c1ccc2c(c1)OCO2)c1c(O)n(CCC2=CCCCC2)c(=O)[nH]c1=O	-0.3	2.5	-124	·	1	·	·	·	0.69	i
CCOC(=O)[C@@H]1[C@H]2COc3ccc(Br)cc3[C@H]2N2C(=O)N(c3cccc(C)c3)C(=O)[C@]12C	0.1	·	-0.5	·	-8	1	-6	-1.2	·	i
COC(=O)C1=C(c2cc3ccccc3s2)C[C@@H]2CC[C@H]1N2C(=O)NCCCOC(C)C	0.7	6.4	4.5	40	-3	-13	-16	-5.3	0.8	i
Cc1nc2ccccc2c(=O)n1-c1ccc(Br)cc1[N+](=O)[O-]	-0.9	-3.0	2.1	-15	-2	9	7	0.8	0.69	i
Oc1ccc(C2=CCNCC2)cc1O	0.6	4.4	0.2	-16	-7	1	-1	1.3	0.66	i
CC[C@H]1CN2CCC1C[C@H]2[C@H](O)c1ccnc2ccc(OC)cc12 (stereo partly specified)	0.7	-3.0	-3.5	·	-2	·	·	·	·	i
Cc1ccc(-c2nc3ccccc3c(=O)n2-c2nccs2)cc1	0.2	·	3.3	-4	-13	·	·	·	0.65	·
COc1cccc(NP(=O)(Oc2ccc(Cl)cc2)Oc2ccc(Cl)cc2)c1	-0.6	·	1.7	30	-2	·	·	·	0.68	·
Cc1[nH]c2ccc(OC(F)(F)F)cc2c1CCNCc1cccc([N+](=O)[O-])c1	0.6	?	6.7	?	7	-53	-79	-5.3	0.65	i
O=C1CN=C(c2cccs2)c2c(sc3c2CCCC3)N1	0.1	·	3.7	-3	5	·	·	·	0.69	·
COC(=O)C1=C(c2ccc(Cl)c(C(F)(F)F)c2)C[C@@H]2CC[C@H]1N2C(=O)NCCNC(C)=O	1.7	-15	0.6	·	1	17	12	24	·	i
Cc1ncc(CNC(=O)N(CCCl)N=O)c(N)n1	-0.1	2.1	4.4	·	0	7	19	0.0	0.7	i
COc1ccc(-n2c(O)c(/C(C)=N/N3CCCCCC3)c(=O)[nH]c2=O)cc1	0.7	-7.6	1.9	-4	-5	19	13	0.9	0.66	i
O=c1c2ccccc2nc(C[n+]2ccccc2)n1-c1cccc(C(F)(F)F)c1	1.5	0.3	3.9	-19	-6	-12	-7	-0.3	0.69	i
Cc1nn(Cc2ccccc2Cl)c(C)c1C(=O)OCC(=O)NC1CCS(=O)(=O)C1 (stereo unspecified)	0.5	·	5.1	-12	7	·	·	·	0.66	·
COc1c2c(cc3c1OCO3)CC[N+](C)=C2	1.1	-1.2	7.6	-3	-8	·	·	·	0.75	i
CC(Cc1ccc(O)cc1)NCC(O)c1cc(O)cc(O)c1 (stereo unspecified)	-0.7	?	5.2	-13	·	16	20	9.3	0.68	i
O=C1/C(=C\c2ccccc2)C2OCC=C3CN4CCC56c7ccccc7N1C5C2C3CC46 (stereo unspecified)	-0.6	11	·	44	-5	-3	-3	3.6	·	i
O=[N+]([O-])c1ccc(N2CCCC2)c2ncccc12	-1.0	1.9	2.8	21	-18	20	3	5.8	0.75	i
CCCNC(=O)N1[C@H]2CC[C@@H]1C(C(=O)OC)=C(c1ccc(S(C)(=O)=O)cc1)C2	1.1	·	4.0	0	-2	·	·	·	·	·
O=c1oc2ccccc2c(O)c1[C@H]1c2ccc(O)cc2Oc2c1c(=O)oc1ccccc21	0.1	-1.5	9.7	18	-7	-34	-38	-13	0.65	i
C/C(=C\c1ccc(N(C)C)cc1)[N+](=O)[O-]	-0.3	6.1	1.3	-9	·	-5	6	-4.5	0.61	i
CC1CC(OC(=O)c2ccccc2)(c2ccccc2)C(C)CN1C (stereo unspecified)	0.8	1.5	2.4	-8	-7	-7	-4	5.3	0.65	i
COc1ccc(NC(=O)N2C[C@@H]3C[C@@H](C2)c2cccc(=O)n2C3)cc1	-0.5	-0.3	-0.8	-3	·	·	·	·	0.8	i
COC(=O)C1=C(N)Oc2c(c(=O)oc3ccccc23)[C@]12C(=O)N(C)c1ccccc12	1.0	·	6.3	-16	-3	·	·	·	0.78	·
CCN(CC)P(=O)(NC(=O)C(Cl)(Cl)Cl)N(CC)CC.[Cl-].[Cl-].[Cl-].[Nd+3]	-0.7	2.7	0.9	3	-7	7	6	-1.4	0.68	i
Cn1cccc1CN1CCN(C(=O)COc2ccccc2)CC1	?	·	-0.3	5	-1	·	·	·	0.73	·
CC1=C(C(=O)O)N2C(=O)[C@@H](NC(=O)CCCC(=O)O)[C@H]2SC1	-0.1	-12	4.7	-5	-10	4	5	4.7	0.78	i

Given with values under each structure: part of the list above
The line under a structure holds: Bfl-1 A1 inh | AF4-AF9 inh | UCH37 inh | T cruzi inh | Beta cell apopt | Ecoli rRNA inh | Ecoli rRNA inh OD600 | Ecoli rRNA inh RFP | E coli growth | FGF22 binding
> COc1ccc(NC(=O)N2C[C@@H]3C[C@@H](C2)c2cccc(=O)n2C3)cc1
  -0.5 | -0.3 | -0.8 | -3 | · | · | · | · | 0.8 | i
> COC(=O)C1=C(N)Oc2c(c(=O)oc3ccccc23)[C@]12C(=O)N(C)c1ccccc12
  1.0 | · | 6.3 | -16 | -3 | · | · | · | 0.78 | ·

Next part:
Molecule	Bfl-1 A1 inh	AF4-AF9 inh	UCH37 inh	T cruzi inh	Beta cell apopt	Ecoli rRNA inh	Ecoli rRNA inh OD600	Ecoli rRNA inh RFP	E coli growth	FGF22 binding
CCOC(=O)C1C(=O)N(C)C2(C)CC1c1ccccc1O2 (stereo unspecified)	-0.1	·	3.9	-15	·	·	·	·	0.73	·
Cc1onc(-c2ccccc2)c1C(=O)N1CCC2(CC1)OCCO2	-0.1	·	-2.4	2	-4	·	·	·	0.71	·
COc1ccc(OC)c(/C=N/OC(=O)Nc2ccc(Cl)cc2)c1	-1.4	-0.4	·	-7	-4	-32	-37	-0.1	·	i
COC(=O)C1=C(c2ccc(S(C)(=O)=O)cc2)C[C@@H]2CC[C@H]1N2C(=O)N1CCC(C)CC1	-0.9	-7.7	0.7	-11	-2	-8	-12	-3.0	·	i
CN1[C@@H]2CC[C@H]1CC(OC(=O)C1C=Nc3ccccc31)C2 (stereo partly specified)	1.2	-10	-1.2	12	-3	-5	-5	2.2	·	i
CCCN(CCC)C(=O)Cc1c(-c2ccc(Cl)cc2)nc2c(Cl)cc(Cl)cn12	0.1	5.3	3.3	·	1	·	·	·	0.7	i
C=CCN1C(=O)c2ccccc2Sc2ccc(C(=O)N3CCC4(CC3)OCCO4)cc21	0.2	9.3	6.9	-8	11	0	-12	8.9	0.63	i
Cc1c(C(=O)N2CCC3(CC2)OCCO3)sc2ncnc(N(C)c3ccccc3)c12	-0.1	·	4.4	18	-3	·	·	·	0.8	·
COC(=O)C1=C(c2ccc(S(C)(=O)=O)cc2)C[C@@H]2CC[C@H]1N2C(=O)NCc1ccc(F)cc1	0.5	·	-3.2	6	-8	·	·	·	·	·
CC(C)C(=O)c1cn(Cc2ccc(C#N)cc2)c2ccccc12	0.8	·	1.8	-8	-2	·	·	·	0.68	·
Cc1ccc2c(c1)N(C(=O)CCC(=O)N1CCC3(CC1)OCCO3)CC(C)O2 (stereo unspecified)	1.2	0.2	2.7	3	-3	9	3	-0.1	0.71	i
CCOP(=O)(OCC)C(NC(=O)c1ccccc1Cl)=C(Cl)Cl	-0.9	·	3.6	-8	-7	·	·	·	0.73	·
CCC(=O)N1CCN(CCN=Cc2c(O)n(C)c(=O)n(C)c2=O)CC1	0.0	·	1.1	-4	-2	16	17	-0.9	0.64	·
BrCC(Br)C1CCC(Br)C(Br)C1 (stereo unspecified)	-0.3	·	0.4	·	7	6	9	0.3	0.66	i
COC(=O)C1=C(c2ccc(OC)c(OC)c2)C[C@@H]2CC[C@H]1N2C(=O)NCC1CC1	0.1	-1.3	3.5	·	1	8	8	-1.1	·	i
CCCCCn1c(=O)c(C(=O)NCc2ccc(Cl)cc2)c(O)c2ccccc21	1.0	-1.5	-2.7	5	33	6	10	-0.5	0.69	i
CCSc1cc(C2C(C#N)=C(N)Oc3n[nH]c(C)c32)c(C)o1 (stereo unspecified)	0.3	·	2.7	0	-2	·	·	·	0.69	·
CN1C2C=C(N(C(=O)c3ccc(Cl)cc3)c3ccccc3)CC1CC2 (stereo unspecified)	0.9	·	2.9	9	·	·	·	·	0.72	·
CC(=O)[C@H]1CCC2C3CC[C@H]4C[C@@H](O)CC[C@]4(C)C3CC[C@@]21C (stereo partly specified)	-0.1	-2.9	3.5	·	3	-2	5	2.7	0.7	i
CN1Cc2c(c(C#N)c(N)n(C)c2=S)CC1(C)C	0.5	·	-60	-9	0	·	·	·	0.71	·
O=P(O)(O)Cc1ccccc1OP(=O)(c1ccccc1)c1ccccc1	0.3	·	0.7	-17	-1	·	·	·	0.63	·
Cc1nnc2n1-c1ccc(Br)cc1C(c1ccccc1Cl)=NC2	0.1	3.7	3.1	3	-4	-1	1	3.5	0.66	i
CCNc1nc(Cl)nc(NC(C)C)n1	0.0	·	0.8	-23	1	·	·	·	0.65	·
COc1ccc(CN2CCCCC2c2cccnc2)cc1C (stereo unspecified)	0.4	·	-1.2	52	-7	6	0	2.1	0.65	·
Nc1c(C(=O)NCC2CCCO2)c2nc3ccccc3nc2n1Cc1ccco1 (stereo unspecified)	-0.4	·	i	-6	-14	7	8	14	0.7	i
CC(C)CNc1c2c(nc3ccccc13)CCC2	-0.1	-1.0	5.6	19	10	3	1	0.7	0.64	i
O=C(O)C1CC2(Cl)C(Cl)=C(Cl)C1(Cl)C2(Cl)Cl (stereo unspecified)	·	2.9	1.5	·	·	-38	-49	-10	0.71	i

Screening data deposited in PubChem by several laboratories.
